# Source: PubChem
# Cruzain noTriton – inhibitors of Trypanosoma cruzi cruzain without detergent. P25779. purified cruzain, Z-FR-AMC fluorescence, no detergent. Potency, µM, without a hit: max response, negative = inhibition, hits mostly inhibitors. 200,000 tested, 2.3% active. AID 1476; active = well fitted curve in the direction sought with a large enough effect; inconclusive = small, poorly fitted or top-dose-only effect, or another doubt; inactive = no such curve, though single readings can be large; an effect the other way counts as inactive or inconclusive;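 note: plate controls were enzyme without inhibitor for no effect and buffer without enzyme for full effect; nearly all actives have a fitted effect of over 40% in size; top concentration of the series not given in the record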
# Target sequence (P25779 123-467 limits assumed): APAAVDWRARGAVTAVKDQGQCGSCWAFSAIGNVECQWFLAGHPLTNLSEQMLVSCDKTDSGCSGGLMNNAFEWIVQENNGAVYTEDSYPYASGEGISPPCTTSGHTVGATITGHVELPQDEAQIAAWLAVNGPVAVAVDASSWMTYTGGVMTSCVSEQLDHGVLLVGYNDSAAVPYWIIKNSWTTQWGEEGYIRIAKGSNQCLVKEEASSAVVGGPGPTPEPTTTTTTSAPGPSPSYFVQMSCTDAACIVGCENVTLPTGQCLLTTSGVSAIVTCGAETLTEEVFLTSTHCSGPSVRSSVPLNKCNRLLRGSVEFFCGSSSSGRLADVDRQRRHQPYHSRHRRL
#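 Purified cruzain at 1.5 nM, pre-incubated 15 min with compound at room temperature in 100 mM sodium acetate pH 5.5, 5 mM DTT, 0.00005% Triton X-100. Reaction started with 2 uM Z-FR-AMC; AMC fluorescence increase over 60 s gives rate.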
# Cruzain Triton – inhibitors of Trypanosoma cruzi cruzain with detergent; P25779; purified cruzain, Z-FR-AMC fluorescence, 0.01% Triton; Potency, µM, for inactives: max response, negative = inhibition, most hits filed as inhibitors; 200,000 tested, 0.43% active; AID 1478; active = well fitted curve in the direction sought with a large enough effect; inconclusive = small, poorly fitted or top-dose-only effect, or another doubt; inactive = no such curve, though single readings can be large; an effect the other way counts as inactive or inconclusive;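 note: plate controls were neutral wells for no effect and buffer without enzyme for full effect; nearly all actives have a fitted effect of over 40% in size; top concentration of the series not given in the record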
#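 Detergent-containing arm of a paired screen for aggregation-based inhibition: 0.01% Triton X-100 present. Cruzain at 1.5 nM cleaved 2 uM Z-FR-AMC at pH 5.5 with 5 mM DTT; AMC fluorescence gain over 60 s measured activity.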
# NS1 function inh – blocks influenza NS1 protein function. S. cerevisiae slowed by influenza A NS1, growth recovery by OD600. Potency, µM (doses to about 46.1 µM), for the others: top-dose activity, positive = more growth. 270,000 tested, 0.4% active; note: actives are rising curves; nearly all actives have a fitted effect of over 50% in size
#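 Growth recovery, yeast-based: influenza A NS1 expressed in S. cerevisiae causes slow growth, and suppressors are detected by OD600. The parent strain without NS1 is used as positive control.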
# MARV entry inh – blocks Marburg virus binding to or entry into cells | 300,000 tested, 1.8% active | AID 540276 | Potency, µM (series often up to 37.8 µM), inactives show top-dose activity change, negative = inhibition, usual class: inhibitors | Marburg virus pseudotyped entry inhibition, cell reporter; control for the full effect not named in the record; about a third of the inactives were read at about 46 µM; active = well fitted inhibition curve with a large enough effect; inconclusive = small, poorly fitted or top-dose-only effect, or effect the other way; inactive = flat fitted curve, though single readings scatter; tested in HEK293 cells; about a fifth of its hits are not listed in these tables; note: % is set by controls: 0 for no effect and ±100 for the full control effect; luciferase read-out
# StopGo reporter – FMDV 2A StopGo reporter, luciferase signal. 410,000 tested, 1.2% active. human cells with a luciferase reporter of 2A StopGo recoding; control for the full effect not named in the record. Potency, µM (titrated, usually from 57.9 µM), without a hit: at the highest dose signal change, negative = less light; active = well fitted falling curve with a large enough effect; inconclusive = small, poorly fitted or top-dose-only effect; inactive = no such curve, though single readings can be large or run the other way; tested in HEK293T cells; note: % is set by controls: 0 for no effect and ±100 for the full control effect; nearly all actives have a fitted effect of over 45% in size; luciferase light after 4 h
# SARS PLpro yeast – SARS-CoV PLP inhibition in yeast | S. cerevisiae expressing SARS-CoV PLpro, growth rescue; control for the full effect not named in the record | Potency, µM (highest dose often 32.9 µM), inactives show at the top dose activity, positive = growth rescue | 330,000 tested, 0.19% active | AID 485353; note: 0% is about no effect; nearly all actives have a fitted effect of over 55% in size; growth read by luminescence after 48 h
# LASV entry inh – Lassa virus entry inhibition; Lassa virus pseudotype entry inhibition, cell reporter; control for the full effect not named in the record; Potency, µM (titrated, usually from 37.9 µM), without a hit: top-dose activity change, negative = inhibition, usual class: inhibitors; 300,000 tested, 1.2% active; active means well fitted inhibition curve with a large enough effect; inconclusive means small, poorly fitted or top-dose-only effect, or effect the other way; inactive means flat fitted curve, though single readings scatter; tested in HEK293 cells; note: % is set by controls: 0 for no effect and ±100 for the full control effect; nearly all actives have a fitted effect of over 50% in size; luciferase read-out
# RE007 growth inh – less growth of the S. pombe RE007 Vpr strain; S. pombe RE007 Vpr strain, BacTiter-Glo ATP luminescence, 24 h; control for the full effect not named in the record; Potency, µM (doses to about 92.2 µM), for the others: at the top dose activity change, negative = less growth; 360,000 tested, 0.21% active; AID 651644; active = well fitted falling curve with a large enough effect; inconclusive = small, poorly fitted or top-dose-only effect; inactive = no such curve, though single readings can be large or run the other way;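 note: % is set by controls: 0 for no effect and ±100 for the full control effect; nearly all actives have a fitted effect of over 50% in size; the assay follows cell death caused by Vpr and the record does not say whether a fall means rescue or toxicity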
#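 Fission yeast RE007 carrying one integrated HIV-1 vpr copy, seeded at OD 0.01 in PMG+AL medium with 23 nL pinned compound. Grown 24 h at 30 degrees; viability read by BacTiter-Glo luminescence after 5 min.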
# * hit, by the source's call; ? = inconclusive; . = not tested or not shown; [ ] = another dose, or the depositor's remark. Unless noted, calls come from the whole dose curve; as a rule, active means well fitted rising curve with a large enough effect; inconclusive means small, poorly fitted or top-dose-only effect; inactive means no such curve, though single readings can be large or run the other way. Potency is the fitted concentration of half-maximal effect.
SMILES,Cruzain noTriton,Cruzain Triton,NS1 function inh,MARV entry inh,StopGo reporter,SARS PLpro yeast,LASV entry inh,RE007 growth inh
CC/C(=N\NC(=O)c1c(C)nc2ccccn12)c1ccccc1,.,.,-2%,-4%[46.1 µM],-14%,-2%,4%,0%
COC(=O)c1cc(NC(=O)c2cc(-c3ccc(C(F)(F)F)cc3)oc2C(F)(F)F)ccc1N1CCOCC1,.,.,?,11µM*,?,0%,?,6%
CCOC(=O)c1ccc(-c2ccc(/C=C(\C#N)C(=O)NCC3CCCO3)o2)cc1 (stereo unspecified),?,1.5%,-6%,21%,?,-6%,9%,-1%
O=C(O)[C@@H]1Cc2c([nH]c3ccccc23)C2CCC(=O)N21 (stereo partly specified),.,.,1%,.,-19%,1%,.,-8%
CC1C/C(=N\NC(N)=S)c2cc(Cl)ccc2S1 (stereo unspecified),.,.,5%,13µM*,?,3%,?,3%
O=C(O)Cn1c(SCCOc2ccccc2)nc2ccccc21,-12%,10.0%,1%,13%,17%,.,7%,-3%
CCOc1ccccc1CNC(=O)c1cnc2sc(N3CCCC3)nn2c1=O,-1%,9.8%,.,.,-16%,.,7%[46.1 µM],.
CNC(=O)NC1CCCCc2sccc21 (stereo unspecified),-4%,2.2%,4%,23%,3%,0%,0%,19%
COc1ccc([N+](=O)[O-])cc1NS(=O)(=O)Cc1ccccc1,.,.,6%,.,-6%,-9%,.,-21%
CC1=CC=CC2=NC(=O)CC(C)(C(=O)N(CC(=O)NC3CCCC3)c3ccccc3C)N12 (stereo unspecified),4%,-6.0%,11%,-4%,-14%,12%,17%,10%
COc1ccc(CN2CCn3nc(C(=O)NC4CC4)cc3C2=O)cc1,.,.,-1%,?,16%,0%,27%[46.1 µM],-8%
Cc1c(C(=O)OC(C)C)sc(N)c1C(=O)OC(C)C,-2%,-11%,-4%,1%,12%,10%,?,-18%
O=C(CC12CC3CC(CC(C3)C1)C2)Nc1ccc2c(c1)COC2=O,-1%,-1.5%,4%,-1%,-9%,-4%,0%,-9%
O=S1(=O)NC2c3ccccc3CC2O1 (stereo unspecified),.,.,-4%,.,0%,-11%,.,2%
CCOC(=O)CCC(=O)N1CCOCCOCCN(C(=O)CCC(=O)OCC)CCOCC1,-2%,3.8%,2%,-8%[46.1 µM],-15%,-3%,-6%,1%
Cc1cccnc1NC(=O)CSc1nnc(CNC(=O)c2cccc([N+](=O)[O-])c2)n1C,.,.,3%,12%,-16%,1%,2%,0%
CCNC(=O)Nn1c(-c2ccccc2)nc2ccccc2c1=O,3%,3.0%,11%,3%,?,13%,1%,-6%
CCCCN(CC)S(=O)(=O)N1CCC(C(=O)NCc2ccc(F)cc2)CC1,15%,4.0%,-3%,-4%,.,-5%,-24%,3%
COc1ccc(-n2cnnc2SCC(=O)c2cc(C)n(Cc3cccs3)c2C)cc1,-12%,-1.0%,14%,9%,18%,-3%,?,-5%
Cc1ccc(CS(=O)Cc2ccc(C(=O)NC3CCCCC3)o2)cc1 (stereo unspecified),.,.,4%,7%[46.1 µM],8%,9%,-7%[46.1 µM],4%
O=C(NCc1ccco1)c1cc(-c2ccc(Cl)cc2)on1,-9%,0.7%,8%,?,28%,-6%,2%,1%
CCCC(=O)Nc1ccc(N2CCN(CC)CC2)c(Cl)c1,-2%,1.0%,5%,?,4%,0%,3%,17%
O=C(Cc1ccc(Cl)cc1)OCc1nnc(-c2ccccc2)o1,.,.,-9%,.,3%,-3%,.,16%
Cc1cccn2c(=O)c3cc(S(=O)(=O)c4ccc(Br)cc4)c(=N)n(C4CCCCC4)c3nc12,.,.,2%,15%[46.1 µM],-10%,7%,10%[46.1 µM],2%
COc1ccc(CNC(=O)CSc2nn3c(=O)c(C(C)(C)C)nnc3s2)cc1OC,.,.,.,10%[46.1 µM],-15%,2%,13%[46.1 µM],5%

# Following part
SMILES,Cruzain noTriton,Cruzain Triton,NS1 function inh,MARV entry inh,StopGo reporter,SARS PLpro yeast,LASV entry inh,RE007 growth inh
CCN(CC(=O)Nc1c(F)cccc1F)C(=O)CSCC(=O)Nc1ccc(OC)cc1,.,.,.,22%,-2%,4%,21%,5%
COC(=O)Cc1ccc(Oc2ncc(C(F)(F)F)cc2Cl)cc1,.,.,.,-5%[46.1 µM],-24%,4%,2%[46.1 µM],49%
CCCS(=O)(=O)N1CCC(C(=O)c2cccc(C(F)(F)F)c2)CC1,18%,-4.4%,-10%,26%,-27%,-12%,-3%,-27%
COc1ccc(C(=O)CC2SC(N)=NC2=O)cc1 (stereo unspecified),.,.,2%,-1%[46.1 µM],19%,-2%,13%,1%
CCOC(=O)CSc1nc2c(cnn2-c2ccc(F)cc2)c(=O)[nH]1,.,.,0%,-20%[46.1 µM],-19%,-1%,-14%[46.1 µM],7%
Cc1ccc(-c2csc(NC(=O)c3cccc(S(=O)(=O)N4CCN(C)CC4)c3)n2)cc1,-4%,-13%,-31%,-2%,13µM*,2%,-4%,-4%
O=C(CSc1nc2c(c(=O)n1-c1ccc(F)cc1)SCC2)Nc1ccc2c(c1)OCO2,.,.,19%,-3%,.,.,5%,-6%
O=C(COc1coc(CN2CCc3ccccc3C2)cc1=O)Nc1ccccc1F,.,.,.,5%,-18%,-1%,2%,3%
COc1ccc(C)cc1C(=O)CCC(=O)N1CCN(c2ccccc2F)CC1,.,.,.,-1%,?,-7%,21%,-4%
CCCn1c(SCC(=O)NCc2ccc(F)cc2)n[nH]c1=O,.,.,6%,-11%[46.1 µM],1%,-3%,5%,33%
CCOC(=O)/C(CCC[N+](C)(CC)CC)=N\O,2%,-0.7%,5%,11%,-17%,-4%,9%,-4%
Cc1cc(SCC(=O)Nc2cccc(S(=O)(=O)N3CCOCC3)c2)nc2ccccc12,.,.,25%,.,-10%,-1%,.,8%
O=C(COc1cc(Cl)c(Cl)cc1Cl)Nn1cnnc1,-9%,0.8%,-1%,12%,-10%,3%,-21%,33%
O=C(c1ccc(F)cc1Cl)N(c1ccccn1)C1CCCCC1,.,.,.,0%,-15%,3%,-5%,-1%
Cc1cc(SCC(=O)c2cc3ccccc3o2)nc2ccccc12,?,-5.8%,27%,12%,38%[activator],0%,10%,13%
CN(CCC#N)C(=O)CSc1nnc(-c2c[nH]c3ccccc23)o1,.,.,1%,.,19%,-2%,.,-6%
O=C(CCl)N(c1ccccc1)c1c[nH]c2ccccc12,5%,0.1%,-12%,?,?,-25%,?,?
CN1CCN(S(=O)(=O)c2ccc(=O)[nH]c2)CC1,6%,2.8%,6%,3%,5%,-6%,?,-3%
CCOC(=O)c1cnc(-n2nc(C)cc2C)nc1Nc1ccc(O)cc1,.,.,4%,.,?,-1%,.,17%
CCc1ccc(C(c2ccccc2)c2c[nH]c3ccc(C)cc23)s1 (stereo unspecified),-14%,-11%,.,?,23%,.,5%[46.1 µM],.
COC(=O)C1=C(C)N=c2s/c(=C/c3ccoc3)c(=O)n2C1c1ccccc1 (stereo unspecified),-7%,-8.5%,-93%,?,-21%,.,?,-6%
Cc1cc(C(=O)N/N=C/c2cc(Br)cc(Br)c2OC(=O)c2ccccc2)n[nH]1,-23%,-6.4%,?,-10%,.,0%,?,.
C=CCN1C(=O)C(CC(=O)Nc2ccc(OCCC)cc2)N(CCCN2CCN(Cc3ccccc3)CC2)C1=S (stereo unspecified),.,.,.,?,?,-4%,?,7%
COc1ccc(C(=O)Nc2ccccc2N2CCCC2)cc1S(=O)(=O)N1CCOCC1,.,.,.,-10%,-13%,1%,-8%,0%
CCOc1ccc(CCNC(=O)CCn2cccc2)cc1OCC,2%,1.8%,11%,0%,21%,10%,3%,-9%

# The listing continues.
SMILES,Cruzain noTriton,Cruzain Triton,NS1 function inh,MARV entry inh,StopGo reporter,SARS PLpro yeast,LASV entry inh,RE007 growth inh
Cc1[nH]c2ccccc2c1/C=N/NC(=O)CCC(=O)NCc1ccccc1,.,.,2%,-24%[46.1 µM],1%,-1%,1%,1%
Clc1cccc(N2CCN(c3nc4ccccc4c4nc(-c5ccccc5)nn34)CC2)c1,-1%,0.7%,.,-2%[46.1 µM],-27%,.,.,.
COc1ccc(CCNC(=O)CSc2nnnn2C)cc1OC,.,.,-1%,.,3%,1%,.,-1%
Cc1ccc2oc(=O)c(-c3nc4ccc(C)cc4[nH]3)cc2c1,-1%,1.3%,.,.,34%[activator],.,3%[46.1 µM],.
COC(=O)c1ccc(N/C=C/C(=O)c2ccc(OC)c(OC)c2)cc1,25%,6.1%,3%,?,-23%,12%,-16%,4%
Cc1ccc(C)c(S(=O)(=O)N2CCN(C(=O)c3cc(-c4cccs4)nn3-c3ccccc3)CC2)c1,.,.,.,?,?,1%,?,8%
CC(C)[C@@H](C(=O)N1CCN(Cc2ccc3c(c2)OCO3)CC1)n1nnc2ccccc2c1=O,.,.,-11%,.,?,2%,.,2%
CC(C)N(C(=O)[C@H]1C[C@H](CC(=O)NCCCn2ccnc2)C(=O)N2CCc3c([nH]c4ccc(Cl)cc34)[C@]12C)C(C)C,.,.,.,7%,-16%,1%,.,-20%
O=C(Nn1cnc2ccccc2c1=O)C1CCCCC1,-1%,-6.2%,6%,19%,.,-7%,3%,-5%
Cc1ccc(NC2CCCN(C(=O)CN3C(=O)CSC3=O)C2)cc1C (stereo unspecified),.,.,16%,-1%,-18%,-5%,?,-16%
CCN(CC)S(=O)(=O)c1cccc(C(=O)N/N=C/c2ccc(OC)c(O)c2)c1,2%,-8.9%,27%,?,0%,?,-13%,0%
CCOC(=O)Cn1c(=O)c2c(nc(N3CCOCC3)n2Cc2ccccc2)n(C)c1=O,2%,-0.5%,.,?,-21%,.,-17%[46.1 µM],.
CC1CCC(C(C)C)C(OC(=O)COC(=O)c2ccc(N)cc2)C1 (stereo unspecified),-6%,-13%,-9%,6%,?,18%,.,-24%
Cc1ccc(NC(=O)c2cccs2)cc1NC(=O)c1ccc(F)cc1,.,.,7%,?,12%,-4%,-8%[46.1 µM],3%
Cc1ccc(C)c(C(=O)COC(=O)c2ccc(Br)o2)c1,3%,2.1%,-45%,1%,-10%,-19%,-15%,?

# This is a random part of the collection; 4.7% or so of the library scored in one or more.
